# Bioassay records deposited in PubChem BioAssay by NMMLSC.
# Autofluor counter = compound fluorescence in toxin protease inhibitor counterscreen; compound autofluorescence counterscreen, microsphere flow cytometry; active compounds read high; fluorescence intensity (no concentration beside the values); 360,000 tested, 3.1% active; AID 624483;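 active = at least 3 SD above the mean of all compounds, about 16000 in these data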;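 also: 100 nL of 1 mM stock went into each well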
# Numbers without * were called inactive.
# Preview:
SMILES,Autofluor counter
CC1CCC(NC(=O)c2[nH]c(C(F)(F)F)nc2-c2ccccc2)CC1 (centres undefined),4342
CC1(C(=O)Nc2cccc3cccnc23)CCN1C(=O)CCC1CCCC1 (centres undefined),3535
CCNC(=O)C1(C)CCCN(C(=O)c2sc(-c3ccccc3)nc2C)C1 (centres undefined),3400
CC(=O)Nc1ccc(C2=NOC(C)(C)C(=O)N2Cc2cccc(C#N)c2)cc1,5370
Cc1ccc(S(=O)(=O)N(C)c2ccc(C(=O)NCC(c3ccco3)N3CCCC3)cc2)cc1 (centres undefined),3977
O=C1NC[C@H](Cc2ccccc2)N(C[C@@H]2CCCN2C[C@H](Cc2ccccc2)N2C[C@H](Cc3ccccc3)N(CC3CCCCC3)C(=O)C2=O)C1=O,5524
CN(C)c1cccc(NC(=O)C2Cc3c(-c4cccnc4)ccnc3O2)c1 (centres undefined),3462

# The whole of this part, from the first entry:
SMILES,Autofluor counter
CC1CCC(NC(=O)c2[nH]c(C(F)(F)F)nc2-c2ccccc2)CC1 (centres undefined),4342
CC1(C(=O)Nc2cccc3cccnc23)CCN1C(=O)CCC1CCCC1 (centres undefined),3535
CCNC(=O)C1(C)CCCN(C(=O)c2sc(-c3ccccc3)nc2C)C1 (centres undefined),3400
CC(=O)Nc1ccc(C2=NOC(C)(C)C(=O)N2Cc2cccc(C#N)c2)cc1,5370
Cc1ccc(S(=O)(=O)N(C)c2ccc(C(=O)NCC(c3ccco3)N3CCCC3)cc2)cc1 (centres undefined),3977
O=C1NC[C@H](Cc2ccccc2)N(C[C@@H]2CCCN2C[C@H](Cc2ccccc2)N2C[C@H](Cc3ccccc3)N(CC3CCCCC3)C(=O)C2=O)C1=O,5524
CN(C)c1cccc(NC(=O)C2Cc3c(-c4cccnc4)ccnc3O2)c1 (centres undefined),3462
O=C1c2ccccc2C(=O)N1N=Cc1ccc2c(c1)OCO2,2923
CC(C)Nc1nc(NCCOc2ccccc2)c2sccc2n1,2986
Cc1noc(C)c1S(=O)(=O)NC(=O)C1(C)CCN1C(=O)C1(c2ccc(Cl)cc2)CCC1 (centres undefined),3970
CCCCOCCCNC(=O)C[C@@H]1C[C@@]2(C(=O)OCC)CCC=C2N(Cc2ccco2)C1=O,5464
O=C(CSc1nnc(-c2ccncc2)n1C1CC1)c1cccs1,3631
Cc1ccc(N2CCC3CC2c2cc(-c4ccc(C(F)(F)F)cc4)ccc23)cc1 (centres undefined),3785
Cc1cccc(C)c1-n1nnnc1C1(C)CCC(=O)N1CC(F)(F)F (centres undefined),4076
COc1ccc(Cl)cc1-c1noc([C@@H]2O[C@H](CO)[C@@H](O)[C@H]2O)n1,3493
C#CCN(C[C@H]1[C@H](OC(=O)NCCCCCC)[C@H](OC(=O)NCCCCCC)C[C@H]2C(=O)N(c3ccccc3)C(=O)[C@@H]12)S(=O)(=O)c1ccc(C)cc1,2864
CCCCCCN1CCN(C2CN(Cc3cn(Cc4cc(C)cc(C)c4)nn3)S(=O)(=O)C2)CC1 (centres undefined),4325
CN1OC[C@@H]2C(=O)N3CCc4c([nH]c5ccccc45)[C@@H]3C[C@@H]21,4727
O=C(Nc1nnc([C@@H]2C[C@H](O)[C@@H](CO)O2)s1)Nc1cccc2c1CCCC2,2957
CCCCc1ccc(S(=O)(=O)NC(=O)C2(C)CCN2C(=O)CC2CC2)cc1 (centres undefined),3624
CCNC(=O)C1CCCN(C(=O)c2ccc3snnc3c2)CC1 (centres undefined),3520
COc1ccc(NC(=O)CN2C(=O)C3CC=CCC3C2=O)cc1Cl (centres undefined),3897
CC(=O)NC(c1ccc(F)c(F)c1)c1nc(-c2cc3ccccc3o2)cs1 (centres undefined),3694
Cc1[nH]c2ccccc2c1/C=N\NC(=O)c1ccccc1Cl,14113
CCCNC(=O)c1cc(C2CCCCN2C(=O)c2ccc(C#N)cc2)on1 (centres undefined),2731
SMILES,Autofluor counter
Cc1cccc(C)c1-n1nnnc1C(c1ccnc2ccccc12)N1CCCN(C(=O)OC(C)(C)C)CC1 (centres undefined),5366
Cc1ccc2c(c1)C1(SC(C)C(=O)N1c1ccc(Cl)cc1)C(=O)N2 (centres undefined),5773
CCNC(=O)C1(C)CCN(C(=O)c2ccc3ccccc3c2)C1 (centres undefined),3846
Cc1cn([C@H]2C[C@H](O)[C@@H](/C=C/C(=O)NCc3cccc4ccccc34)O2)c(=O)[nH]c1=O,6134
CCOC(=O)C1CCN(C(=O)CCn2c(=O)oc3ccccc32)CC1,3710
CCNC(=O)C1(C)CCN(C(=O)c2cccc(OC(F)(F)F)c2)C1 (centres undefined),4018
COc1cccc(S(=O)(=O)N(C)C[C@H]2OCc3cnnn3CCCC(=O)N([C@@H](C)CO)C[C@H]2C)c1,3020
Cc1noc(C)c1C(=O)N1CCCC(C)(C(=O)NS(=O)(=O)C2CC2)C1 (centres undefined),2871
COc1cc(NC(=O)c2ccc(-c3cn[nH]c3)c3ccoc23)cc(OC)c1OC,3623
c1coc(-c2cc3nc(NCc4ccc5c(c4)OCO5)ccn3n2)c1,3041
CC(C)n1nnnc1C1c2ccccc2C(=O)N1CCCN1CCOCC1 (centres undefined),6146
Cc1cccc(C)c1NC(=O)CN1CCN(C(=O)CNC(=O)c2ccc(-c3ccccc3)cc2)CC1,2820
CC(C)CC(NC(=O)OCc1ccccc1)C(=O)NC(Cc1c[nH]c2ccccc12)C(=O)O (centres undefined),5484
COc1ccc(C)cc1Nc1ncnc2c1nnn2Cc1ccccc1Cl,3877
CCCCC(=O)N(C)c1c(C)nc2ccc(C(=O)NCCOc3ccc(OC)cc3)cn12,3543
CCOC(=O)CC1c2nc3ccccc3cc2CN1C(=O)OCC (centres undefined),3789
CCNC(=O)C1(C)CCCN(C(=O)c2ccccc2Br)C1 (centres undefined),3984
O=C(c1ccc(=O)[nH]c1)N(c1ccccc1)C(CCc1ccccc1)c1nc2ccccc2[nH]1 (centres undefined),5456
CC(=O)c1cccc(NC(=O)C2Cc3c(-c4ccco4)ccnc3O2)c1 (centres undefined),4065
COc1cc2c(cc1OC)C(CNC(=O)C=Cc1ccccc1)C2 (centres undefined),2987
OCc1cccc(-c2csc(C(O)c3ccco3)n2)c1 (centres undefined),2858
CCOc1ccc(CCN2C(=O)C(=O)N([C@@H](Cc3ccccc3)CN3CCC[C@@H]3CN3C(=O)C(=O)NC[C@@H]3Cc3ccc(O)cc3)C[C@@H]2Cc2ccccc2)cc1,4290
Cc1ccc(CN2C(=O)C(CC(C)C)Nc3ncnc(N4CCCCC4)c32)cc1 (centres undefined),5204
CCOC(=O)[C@]12CCC=C1N(Cc1ccco1)C(=O)[C@H](CC(=O)NCc1ccccc1)C2,5885
CCOc1ccccc1C(=O)Nc1nnc(SCC(=O)N2CCCC2)s1,4005

# A second format for part of the listing above.
SMILES	Autofluor counter
COc1cc2c(cc1OC)C(CNC(=O)C=Cc1ccccc1)C2 (centres undefined)	2987
CCOC(=O)C1CCN(C(=O)CCn2c(=O)oc3ccccc32)CC1	3710
OCc1cccc(-c2csc(C(O)c3ccco3)n2)c1 (centres undefined)	2858

# Following part
SMILES,Autofluor counter
CCN(CC(=O)Nc1cc(Cl)ccc1C)C(=O)C1CCN(c2ncnc3sc(C)c(C)c23)CC1,3038
CCOc1ccccc1C=C1CCc2ccccc2C1=O,2844
CCN1/C(=C/C=C/C2=[N+](CC)c3ccccc3C2(C)C)C(C)(C)c2ccccc21,3915
CCC1=NN(C(=O)c2ccccc2[N+](=O)[O-])C(O)(c2ccccc2)C1 (centres undefined),3769
Cc1cccc(CCNC(=O)C2CC(O)CN2C(=O)Nc2ccccc2)c1 (centres undefined),3803
O=C1CCCCC(=O)[C@H](OC(=O)c2ccccc2)C[C@H](c2ccccc2)O1,5707
CCCCC(=O)N(C)c1c(CC)nc2c(OCCOc3ccccc3)cccn12,3063
C[C@@H]1CC2=C(C(=O)OC(C)(C)O2)[C@@H](C2CC2)O1,5733
C[C@@H]1CN([C@H](C)CO)C(=O)c2cc(Br)cnc2O[C@@H]1CN(C)Cc1cncnc1,2866
O=c1c2ccccc2nnn1CCc1ccccc1,3943
CC1(C(=O)NS(=O)(=O)c2ccccc2Cl)CCN1C(=O)Cc1ccccc1Cl (centres undefined),3796
CCN(CC)C(=O)C1=C(C)N(Cc2ccc(OC)cc2)C(=O)C(CC(=O)NCc2cccs2)C1 (centres undefined),3507
Cc1nc(N/N=C/c2cccnc2)cc(N2CCOCC2)n1,3747
CC(C)C(N)c1csc(Nc2ccc(C(=O)N(C)Cc3ccccc3)cn2)n1 (centres undefined),3840
CCCNC(=O)C1(C)CCCN(C(=O)Cc2ccc3ccccc3c2)C1 (centres undefined),3595
CCc1nc2c(OCCC3CCCCC3)cccn2c1N(C)C(=O)C1CC1,3161
COc1ccc(-n2nc3ccc(N)cc3n2)cc1,3774
CCOC(=O)C1(COCc2ccccc2)CCCCC1=O (centres undefined),2901
COc1ccc(C(C)=O)cc1Cn1c(C)c(C(=O)NCc2ccc(C(F)(F)F)cc2)sc1=O,6564
CN1CCN(C2CN(CCc3ccccc3)S(=O)(=O)C2)CC1 (centres undefined),5792
Cn1c(SCC(=O)N2CCCC2)nc2c(c1=O)SCC2,3896
CNc1cncc(-c2ccc(C)cc2)n1,3815
CCN(CC)C(=O)C1=C(C)N(Cc2ccccc2)C(=O)C(CC(=O)NCCCN(C)C)C1 (centres undefined),3111
Cc1ccc(Cn2c(C)c(C(=O)NCc3cccc(C(F)(F)F)c3)sc2=O)cc1,3987
O=C(NCc1ccccc1)c1cc(C2CCCN(S(=O)(=O)c3cccc4cccnc34)C2)on1 (centres undefined),3765
SMILES,Autofluor counter
O=C(Nc1ccc(F)cc1)Nc1nnc([C@@H]2C[C@H](O)[C@@H](CO)O2)s1,3106
CC1(Cc2ccc(F)cc2)C(=O)Nc2c(Cl)ccc(Cl)c21 (centres undefined),4095
OC[C@@H]1CN(C2CCCC2)C[C@H](n2cnc3c(N4CCCC4)ncnc32)O1,4115
C[C@@H]1O[C@H](C2CCCCC2)Cc2[nH][nH]c(=O)c21,6130
Cc1cnc(CNC(=O)c2csc([C@H]3C[C@H](O)[C@@H](CO)O3)n2)cn1,3776
C#CCn1c2ccccc2c(=O)n1C(C)C,5628
COC(=O)c1ccc(CNC(=O)C(Cc2ccccc2)NC(=O)c2ccccc2)cc1 (centres undefined),4250
CCCCc1c(-c2ccccc2OC)ncn1Cc1ccc(Cl)cc1,6544
COc1ccc(NC(=O)C2Cc3c(-c4ccccc4)ccnc3O2)cc1OC (centres undefined),3842
COc1ccc(NC(=O)C2Cc3c(-c4cccc(C(N)=O)c4)ccnc3O2)cc1 (centres undefined),3453
CC1=C(C(=O)N2CCCCCC2)CC(CC(=O)NCCc2ccccn2)C(=O)N1Cc1ccc(C(C)(C)C)cc1 (centres undefined),5677
COc1ccccc1-c1cc2c(c3c1ccn3C)C1CCC2C1 (centres undefined),4225
COc1ccc(CNC(=O)c2ccc(-n3ccnc3)c3ccoc23)cc1OC,3480
CC(C)CC1C(=O)N(Cc2cn(CCC3OCCCO3)nn2)CCS(=O)(=O)N1Cc1ccc(-c2ccc(F)cc2)cc1 (centres undefined),3009
O=C(Cn1cc(COc2ccc(-n3cccc3)cc2)nn1)NS(=O)(=O)c1ccccc1C(F)(F)F,3555
OCc1ccc(-c2cccc3nccn23)cc1,3824
CC(C)Nc1ncnc2c1ncn2[C@H]1CN(CCN2CCOCC2)C[C@@H](CO)O1,2912
O=C(COC(=O)COc1ccc(Cl)cc1)Nc1cccnc1Cl,2855
CC(C)C[C@H]1CN([C@@H](Cc2ccc(O)cc2)CN2CCC[C@@H]2CN2C(=S)NC[C@@H]2Cc2ccccc2)C(=S)N1CC1CCCCCC1,5929
CC1(C(=O)NS(=O)(=O)c2cccc(F)c2)CCN1C(=O)c1cccc(F)c1 (centres undefined),3609
COc1ccc(CC(N)c2csc(NC(=O)c3ccccc3)n2)cc1 (centres undefined),2939
O=C(/C=C/[C@H]1O[C@@H](n2ccc(=O)[nH]c2=O)[C@H](O)[C@@H]1O)N1CCN(CCc2ccccc2)CC1,4321
COc1ccc(NC(=O)C2(C)Cc3c(-c4ccc(N(C)C)cc4)ccnc3O2)cc1 (centres undefined),3793
COCCNC(=O)C1CCCN(C(=O)Cc2cccc3ccccc23)CC1 (centres undefined),3013
CC1(Oc2cccc(F)c2)CCN(Cc2ccc3ccccc3c2)C1 (centres undefined),3131

# Look-ups from the results shown:
# Result for OCc1cccc(-c2csc(C(O)c3ccco3)n2)c1 (centres undefined) under Autofluor counter: 2858
# Result for O=C(c1ccc(=O)[nH]c1)N(c1ccccc1)C(CCc1ccccc1)c1nc2ccccc2[nH]1 (centres undefined) under Autofluor counter: 5456

# New compounds follow:
SMILES,Autofluor counter
C[C@H](CO)N1C[C@H](C)[C@@H](CN(C)C(=O)Nc2ccc(C(C)(C)C)cc2)OCc2cnnn2CCCC1=O,3741
COc1ccc(Cl)cc1N(CC(=O)NCc1ccccn1)S(=O)(=O)c1ccc(C)cc1,3990
Clc1cccc(N2Cc3cc(N4CCOCC4)ccc3-n3nncc3C2)c1,5928
CC(C)CN1CCC1(C)C(=O)Nc1cc(-c2ccccc2)nn1C (centres undefined),2835
CC(=O)Nc1ccc(-c2ccnc3c2CC(C(=O)NCCC(F)(F)F)O3)cc1 (centres undefined),4255
C[C@H](CO)N1C[C@H](C)[C@H](CN(C)C(=O)Nc2ccc(F)cc2)OCc2cnnn2CCCC1=O,2935
COCCCn1c(=O)/c(=C/c2ccccc2OC(C)C)s/c1=C(\C#N)C(=O)Nc1ccc(C(=O)O)cc1,4087
COc1ccc(-n2c(SCC(=O)NCC3CCCO3)nc3ccccc3c2=O)cc1Cl (centres undefined),4172
COc1ccccc1C(=O)N/C(=C/c1ccc(Br)cc1)C(=O)N1CCOCC1,4118
COc1cc2c(cc1OC)C(O)=CC(=O)C2=O,3567
CCCC(=O)Nc1cc(OC)c(NC(=S)Nc2cccc(C)c2)cc1OC,3575
O=C(/C=C/[C@H]1O[C@@H](n2cnc3c(NC(=O)c4ccccc4)ncnc32)[C@H](O)[C@@H]1O)NCc1ccc2c(c1)OCO2,5468

# By substructure: the compounds so far containing a cyano group
SMILES,Autofluor counter
CC(=O)Nc1ccc(C2=NOC(C)(C)C(=O)N2Cc2cccc(C#N)c2)cc1,5370
CCCNC(=O)c1cc(C2CCCCN2C(=O)c2ccc(C#N)cc2)on1 (centres undefined),2731
COCCCn1c(=O)/c(=C/c2ccccc2OC(C)C)s/c1=C(\C#N)C(=O)Nc1ccc(C(=O)O)cc1,4087

# Not all compounds are listed; count on the stated rates, not on these rows.
